Assay outcomes: PubChem BioAssay, National Center for Advancing Translational Sciences (NCATS)
TDP1 block – TDP1 (human) enzyme inhibition | 0.28% of 350,000 active | Potency, µM (highest dose often 130 µM), inactives show top-dose activity change, negative = inhibition, usual class: inhibitors | AID 485290 | recombinant TDP1, AlphaScreen DNA substrate cleavage | Q9NUW8; note: nearly all actives have a fitted effect of over 40% in size
Target sequence (Q9NUW8 whole entry, looked up): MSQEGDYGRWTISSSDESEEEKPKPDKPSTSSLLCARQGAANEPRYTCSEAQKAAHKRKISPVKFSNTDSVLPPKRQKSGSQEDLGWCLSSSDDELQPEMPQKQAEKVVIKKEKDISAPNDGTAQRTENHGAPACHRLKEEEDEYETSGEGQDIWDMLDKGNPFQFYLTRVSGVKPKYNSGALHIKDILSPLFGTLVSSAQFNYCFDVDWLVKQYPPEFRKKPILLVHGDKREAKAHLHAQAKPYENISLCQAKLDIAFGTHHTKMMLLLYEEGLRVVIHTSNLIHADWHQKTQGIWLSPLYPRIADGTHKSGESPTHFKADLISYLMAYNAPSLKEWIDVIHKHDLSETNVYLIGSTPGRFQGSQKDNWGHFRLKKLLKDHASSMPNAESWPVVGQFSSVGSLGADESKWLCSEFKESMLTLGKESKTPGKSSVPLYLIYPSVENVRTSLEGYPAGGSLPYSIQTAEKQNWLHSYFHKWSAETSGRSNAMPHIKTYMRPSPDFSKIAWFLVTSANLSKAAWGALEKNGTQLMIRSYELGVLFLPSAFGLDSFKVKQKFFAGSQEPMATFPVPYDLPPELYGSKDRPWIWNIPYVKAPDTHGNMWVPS
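Recombinant human Tdp1 (E. coli-expressed, 1 nM final) preincubated with compounds 15 min at room temperature, then 5'-biotin/3'-phosphotyrosine-FITC DNA substrate (15 nM final) added for 5 min. AlphaScreen beads (10 ug/ml final) added 10 min; cleavage lowers signal.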
FEN1 inhibitor – blocks human flap endonuclease 1; Recombinant FEN1 flap cleavage, fluorescence, 15 min; 0.35% of 390,000 active; AID 588795; P39748; Potency, µM (titrated, usually from 114 µM), inactives show at the highest dose activity change, negative = inhibition, actives largely listed as inhibitors; note: nearly all actives have a fitted effect of over 65% in size
Target sequence (P39748 whole entry, looked up): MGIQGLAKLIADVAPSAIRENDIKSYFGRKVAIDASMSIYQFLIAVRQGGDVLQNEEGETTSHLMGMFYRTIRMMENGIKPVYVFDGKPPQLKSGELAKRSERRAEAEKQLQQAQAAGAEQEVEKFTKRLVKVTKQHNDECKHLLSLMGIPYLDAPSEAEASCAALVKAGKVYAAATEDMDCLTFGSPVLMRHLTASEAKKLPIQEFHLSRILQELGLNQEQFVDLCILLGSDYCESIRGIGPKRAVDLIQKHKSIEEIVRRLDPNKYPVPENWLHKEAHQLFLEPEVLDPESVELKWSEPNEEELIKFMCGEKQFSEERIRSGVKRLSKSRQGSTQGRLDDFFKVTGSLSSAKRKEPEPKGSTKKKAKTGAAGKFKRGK
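Recombinant FEN1 (10 nM) was preincubated with pin-transferred compounds for 15 min at room temperature, then flap DNA substrate (50 nM final) was added. Plates were read at 0 and 15 min, and normalized concentration–response data were fitted to a four-parameter Hill equation.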
* marks the source's active call; other numbers are inactive results; . = no result given; & = joins results of further samples; [ ] = dose if it differs, or a comment. Calls come from the whole dose curve; as a rule, active = well fitted inhibition curve with a large enough effect; inconclusive = small, poorly fitted or top-dose-only effect; inactive = no such curve, though single readings can be large or run the other way. % is set by controls: 0 for no effect and ±100 for the full control effect; potency is the fitted concentration of half-maximal effect.

Start of the data: the first four records, ahead of the listing:
mol	TDP1 block	FEN1 inhibitor
CC1(C)Cc2c(sc3[nH]c(=O)n(CC(=O)NCC4CCCO4)c(=O)c23)CO1 (centres undefined)	1%	3%
O=C(/C=C/Nc1ccc(F)cc1)c1ccco1	4%	-2%
Cc1cc2ccccc2n2c(SCC(=O)Nc3ccc(S(=O)(=O)N4CCC(C)CC4)cc3)nnc12	5%	-15%
CCC(=O)N1C(Cc2ccccc2)COC1(C)C (centres undefined)	3%	-10%

The list itself, previewed entries included:
mol	TDP1 block	FEN1 inhibitor
CC1(C)Cc2c(sc3[nH]c(=O)n(CC(=O)NCC4CCCO4)c(=O)c23)CO1 (centres undefined)	1%	3%
O=C(/C=C/Nc1ccc(F)cc1)c1ccco1	4%	-2%
Cc1cc2ccccc2n2c(SCC(=O)Nc3ccc(S(=O)(=O)N4CCC(C)CC4)cc3)nnc12	5%	-15%
CCC(=O)N1C(Cc2ccccc2)COC1(C)C (centres undefined)	3%	-10%
CN(C)C(=O)CSc1nc(-c2ccccc2)nc2c1CCCC2	-2%	1%
COc1cc(/C=C/C(=O)OCC(=O)NC(=O)NCc2ccccc2)ccc1OCC#N	5%	9%
COc1ccc(C)cc1NC(=O)NNC(=O)c1cc2ccccc2cc1O	-3%	-11%
CC(=O)c1nn(-c2cccc(Br)c2)cc1C(=O)c1ccc(C)cc1	-3%	-8%
CCn1c(=O)c2ccccc2n(CC(=O)NCCC2=CCCCC2)c1=O	10%	-1%
O=[N+]([O-])c1ccc(COc2ccc(CNc3ccccc3)cc2)cc1	5%	4%
COc1cccc(-c2cc(C(=O)N3CC4(C)CC3CC(C)(C)C4)no2)c1 (centres undefined)	0%	-21%
COc1ccccc1CNC(=O)c1ccc(OC(F)F)c(OC)c1	1%	3%
O=C(C1=NN[C@@H]2C(=O)N(c3cccc(F)c3)C(=O)[C@H]12)c1ccc2ccccc2n1	5%	0%
CN(CC(=O)NC(=O)NCc1ccccc1)Cc1ccc(Cl)cc1	6%	-13%
O=C(Cn1nc(-c2ccccc2)c2ccccc2c1=O)NN1CCOCC1	4%	-5%
Nn1c(SCC(=O)NC2CCCCC2)nnc1-c1ccccc1	-2%	4%
O=C(COC(=O)Cc1ccccc1F)Nc1cccc(F)c1	6%	1%
O=C(O)C1C2CCC(O2)C1C(=O)NCc1ccccc1Br (centres undefined)	1%	0%
O=C1CCCC2=C1C(c1ccccc1)C1=C(CCCC1=O)O2	-3%	.
O=C(c1cnsn1)N1CCN(c2ccccn2)CC1	7%	-4%
O=C(O)CSc1ncnc2c1oc1ccccc12	3%	-3%
NC12CC3CC(C1)CC(O)(C3)C2	-1%	-6%
COc1cc(CNC(=O)c2nc(Cn3nc(C)c(Br)c3C)no2)cc(OC)c1	4%	1%
O=S(=O)(CC(CN1CCCCC1)N1CCCCC1)c1ccccc1 (centres undefined)	2%	-4%
CCc1nc(SCC(=O)Nc2ccccc2)c2c(=O)n(C)c(=O)n(C)c2n1	3%	6%
CCc1ccc(N2C(=O)CC(N3CCC(C(=O)OC)CC3)C2=O)cc1 (centres undefined)	0%	7%
Cc1ccc2nc(NS(C)(=O)=O)sc2c1	-4%	1%
O=C(Nc1ccccc1)C12CC3CC(C1)CC(n1cnc([N+](=O)[O-])n1)(C3)C2	1%	9%
CCNC(=O)COC(=O)c1cc(S(=O)(=O)N2CCCc3ccccc32)ccc1Cl	5%	-14%
COc1ccc2c(C)c(C(=O)O)oc2c1	3%	4%
COC(=O)c1ccccc1NC(=O)C/C(C)=N/NC(=O)Cc1ccc(Cl)cc1	0%	.
CC(C(=O)NCc1ccccc1)N1C(=O)C2CC=C(Cl)CC2C1=O (centres undefined)	-5%	-4%
CCc1cc(=O)oc2cc(OCC(=O)NCCN3CCOCC3)c(Cl)cc12	6%	8%
Oc1ccc(CNC2CCCCC2)cc1	4%	-1%
Cc1cc(NC(=O)c2cc(-c3ccccc3C)nc3ccccc23)no1	8%	-11%
NS(=O)(=O)c1ccc(CCN=C(NS(=O)(=O)c2cccs2)c2ccccc2)cc1	-2%	7%
COc1cc(C)nc(N2CCCC(C(=O)Nc3cccc(Cl)c3C)C2)n1 (centres undefined)	-10%	2%
O=S(=O)(NCc1ccc2c(c1)OCO2)c1cccc2nsnc12	1%	9%
O=C(CN1CCOc2ccccc21)NCc1ccc(F)cc1	-3%	-6%
COc1cc(-c2nc3cnccc3n2C)cc(OC)c1OC	0%	0%
Cc1cccc(OCCCN2CCCCCC2)c1	-10%	-5%
CC1(C)Oc2ccc(C(=O)NC3CCCCC3)cc2N(CC#N)C1=O	.	-6%
O=C(O)c1ccc(CN(c2ccccn2)S(=O)(=O)c2ccccc2)cc1	3%	6%
COc1ccc(OC)c(C(O)c2coc3ccc(O)c(CN(C)C)c23)c1 (centres undefined)	2%	-4%
CCOc1ccccc1-c1cc(C(=O)N/N=C/c2ccc(O)c(OC)c2)c2ccccc2n1	-8%	-12%
O=C(NCCN1CCN(c2ccccc2)CC1)C1CCN(S(=O)(=O)N2CCOCC2)CC1	1%	-7%
O=C(COc1ccc(S(=O)(=O)NC2CCCCC2)cc1Cl)N1CCN(c2ccccc2)CC1	6%	-18%
CCCCN(C(=O)CSCc1c(C)noc1C)c1c(N)n(CCCC)c(=O)[nH]c1=O	2%	5%
COC(=O)/C=C/c1ccsc1NC(C)=O	0%	-6%
COc1ccc(-c2c(C)oc3c(CN4CCN(C)CC4)c(O)ccc3c2=O)cc1	7%	-13%
O=C(c1cccs1)N1CCN(S(=O)(=O)c2ccccc2)CC1	3%	-1%
O=C(Nc1cccc(-n2cnnn2)c1)c1cccs1	13%	19%
COc1ccc(CCNC(=O)CSc2nnc3ccc(-c4ccccn4)nn23)cc1OC	.	0%
CCOc1ccccc1/C=C/c1onc(C)c1S(=O)(=O)N1CCC(C(=O)NC)CC1	.	-18%
Cc1cccn2c(=O)nc(SCC(=O)N3N=C(c4cccs4)CC3c3ccc(F)cc3)nc12 (centres undefined)	1%	0%
O=C(COC(=O)C1CCN(/C=C/C(=O)C(F)(F)F)CC1)Nc1cccc(F)c1	1%	-9%
COc1ccc(N2C(=O)CSC2c2ccc3c(c2)OCO3)cc1 (centres undefined)	2%	-11%
CN(C(=O)c1ccncc1)c1nnc(-c2cnccn2)s1	1%	-2%
CCOC(=O)C1=NNC2(c3ccc(C)cc3)C(=O)N(c3ccc(Cl)cc3)C(=O)C12 (centres undefined)	3%	-4%
COc1cc2c(cc1OC)-c1nnc(C)n1C1(CCCC1)C2	-3%	-5%

3 of the compounds above, as labelled records.
compound: CCNC(=O)COC(=O)c1cc(S(=O)(=O)N2CCCc3ccccc32)ccc1Cl
  TDP1 block: 5%	FEN1 inhibitor: -14%

compound: O=S(=O)(NCc1ccc2c(c1)OCO2)c1cccc2nsnc12
  TDP1 block: 1%	FEN1 inhibitor: 9%

compound: CC1(C)Cc2c(sc3[nH]c(=O)n(CC(=O)NCC4CCCO4)c(=O)c23)CO1 (centres undefined)
  TDP1 block: 1%	FEN1 inhibitor: 3%

Continuation:
mol	TDP1 block	FEN1 inhibitor
Cc1ccc2ncnc(NCCC(=O)O)c2c1	3%	-8%
Cc1ccc(C)c(NC(=O)CCNS(=O)(=O)c2ccc3[nH]c(=O)oc3c2)c1	-14%	6%
COc1ccccc1-c1nnc(SCC(=O)Nc2ccc(Cl)cc2Cl)o1	3%	1%
Cc1cc(Cl)c2oc(C(=O)NCCN3CCOC3=O)c(C)c2c1	3%	19%
O=C1CCCC(O)=C1N=Nc1ccc(S(=O)(=O)N2CCOCC2)cc1	.	8%
Cn1c(=O)c2c(nc(Cl)n2Cc2ccncc2)n(C)c1=O	-5%	-13%
O=C(Nc1ccc2ncccc2c1)c1cccc(Br)c1	.	-6%
CN(CC(=O)Nc1cccc(S(=O)(=O)N(C)C)c1)Cc1ccccc1	7%[0.0935 µM]	-4%
Cc1ccc(NC(=O)CCc2nnc3ccc(NCc4ccco4)nn23)nc1	-3%	15%
CN(C(=O)CS(=O)(=O)c1cn(CC(=O)N2CCOCC2)c2ccccc12)c1ccccc1	1%	13%
CCOc1ccccc1Cn1c(=O)oc2ccc(C)cc21	-4%	-13%
O=C(COc1ccccc1Cl)N1CCN(c2ncccn2)CC1	10%	-1%
O=C(O)CNc1nc(-c2ccccc2)nc2c1oc1ccccc12	3%	5%
O=C(COC(=O)CCCOc1ccc(Cl)cc1Cl)NCc1ccc(F)cc1	-3%	-3%
Cc1ccc(Sc2oc(/C=N/n3cnnc3)cc2Br)cc1	5%	-12%
Brc1ccc(-c2nnc(-c3ccc4c(c3)OCO4)o2)o1	0%	4%
O=C(NC1(C(F)(F)F)C(=O)Nc2c1c(=O)[nH]c(=O)n2-c1ccccc1)c1cccnc1 (centres undefined)	-2%	3%
COc1ccc(CCNC(=O)C(=O)NCC2OCCN2S(=O)(=O)c2ccc(OC)c(OC)c2)cc1 (centres undefined)	.	15%
COc1ccc(-n2c(SCC(=O)Nc3ccc4c(c3)OCO4)nc3c(c2=O)SCC3)cc1	-2%	15%
CC(=O)Nc1ccc(NC(=O)CSc2ccc(C(F)(F)F)cc2[N+](=O)[O-])cc1	-2%	-3%
CC(=O)N1N=C(c2ccc(C)o2)CC1c1ccc(Br)cc1 (centres undefined)	2%	-3%
O=C(Nc1ccc2c(c1)C(=O)OC2)c1ccc(C(F)(F)F)cc1	-13%	3%
CCN1CCc2nc(N)oc2CC1	8%	12%&13%
O=C(NCc1ccc(Cl)cc1)C(=O)NCC1OCCN1S(=O)(=O)c1cccs1 (centres undefined)	3%	13%
O=C(Oc1ccccc1Cl)C1CCN(C(=O)c2ccc(F)cc2)CC1	-1%	-10%
C[C@H](NC(=O)OC(C)(C)C)c1nnc(SCC(=O)Nc2ccc(Br)cc2)o1	-1%	2%
Nn1c(SCc2nc3ccccn3c2Br)nnc1-c1cccnc1	-2%	0%
COc1ccc(O)c(/C=N/n2c(-c3ccco3)csc2=Nc2cccnc2)c1	7%	1%
O=C(CN1CCc2ccccc2C1)c1cccs1	-3%	-7%
O=C(CSc1nnc(Cc2cccs2)n1Cc1ccco1)Nc1ccc(Br)cc1	9%	-11%
O=C(N=C1SC2CS(=O)(=O)CC2N1c1ccc(F)cc1F)C1CC1 (centres undefined)	5%	-2%
COc1cc(OC)cc(-c2nnc(SCC(=O)N3CCCc4ccccc43)o2)c1	-4%	2%
O=C(CSc1ncn(-c2ccccc2)n1)Nc1nccs1	-14%	-13%
Cc1ccc(-c2cc(C(=O)NCc3ccco3)no2)cc1	1%	4%
Nc1nc2n(n1)C(c1ccco1)CC(c1ccc(Cl)cc1)N2 (centres undefined)	0%	7%
CCOc1ccc(Nc2nc(Cl)nc(NCCO)n2)cc1	5%	3%
COCCN(C(=O)Nc1ccc(OC)cc1OC)C1CCN(C(C)=O)CC1	3%	-3%
O=C(CN1C(=O)NC2(CCCCCCC2)C1=O)N1CCN(C(=O)c2ccco2)CC1	-14%	-5%
O=C(NNC(=O)C1CC1c1ccccc1)c1ccccc1F (centres undefined)	2%	1%
C/C(=N/N=C/c1ccc(N(C)C)cc1)c1ccccc1	8%	-14%
COc1ccc(C2c3c(oc4ccccc4c3=O)C(=O)N2c2ccccn2)cc1 (centres undefined)	3%	-2%
O=C(c1cccc([N+](=O)[O-])c1)c1cc2ccccc2o1	0%	5%
CC1CCC(NC(=O)C(Cc2ccccc2)n2cccc2)CC1 (centres undefined)	5%	12%
CCn1c(Cc2ccc(OC)cc2)nnc1SCC(=O)Nc1nc2ccccc2s1	-5%	-6%
CCCN(C(=O)COC(=O)CCOc1ccccc1C)c1c(N)n(Cc2ccccc2)c(=O)[nH]c1=O	0%	-5%

Grouped by structure, the compounds so far containing a cyano group.
mol	TDP1 block	FEN1 inhibitor
COc1cc(/C=C/C(=O)OCC(=O)NC(=O)NCc2ccccc2)ccc1OCC#N	5%	9%
CC1(C)Oc2ccc(C(=O)NC3CCCCC3)cc2N(CC#N)C1=O	.	-6%

(listing goes on)
mol	TDP1 block	FEN1 inhibitor
COc1cccc2[nH]c(C(=O)NCc3ccccc3)cc12	.	-5%
CCOC(=O)C(NCc1ccccc1OC)(NC(=O)c1ccccc1)C(F)(F)F (centres undefined)	4%	-11%
CC1CC(=O)N(c2ccc(NCc3ccc(Cl)cc3)c([N+](=O)[O-])c2)C1=O (centres undefined)	1%	8%
O=C(CCc1nnc(Cc2ccc(-c3ccccc3)cc2)o1)NCCc1cccnc1	5%	-2%

Looked up by structure from the list above, 2 records:
mol	TDP1 block	FEN1 inhibitor
O=C(CCc1nnc(Cc2ccc(-c3ccccc3)cc2)o1)NCCc1cccnc1	5%	-2%
CCOC(=O)C(NCc1ccccc1OC)(NC(=O)c1ccccc1)C(F)(F)F (centres undefined)	4%	-11%

A portion of the library; most or all hits stand in other tables.
